High-throughput results as filed in PubChem BioAssay.
Beta apoptosis: beta cell apoptosis inhibition. AID 435005. 300,000 tested, 0.8% active. protection from apoptosis, % (no concentration beside the values). INS-1E cytokine-induced death, ATP luminescence, 48 h; percent of positive-control rescue, neutral wells zero;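 active means all replicates at 75% or more, or half of them and the mean; inconclusive means half reach 75% but not the mean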;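 further: 0% = cytokine-treated negative control wells and 100% = positive control rescue; higher means more ATP so stronger rescue from cytokine killing; wells of about 40 µL received 100 nL stock; the first replicate is given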
MLL AF4-AF9 inh: MLL-AF4/AF9 protein interaction inhibition; P42568; AlphaScreen, biotin-AF4 peptide binding to FLAG-AF9; inhibition, % at 10 µM; 350,000 tested, 0.47% active; AID 651704;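 active means every replicate reaching a set inhibition limit, whatever the replicate mean, cut at about 25% in these data; inconclusive means mean inhibition reaches that limit but some replicates miss it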;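 further: 0% = plate neutral control median and 100% = total signal loss; the record names both 10 and 1 µM as test concentration; the first replicate is given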
FGF22 binding: binders of recombinant human FGF22 by thermal shift. Q9HCT0. SYPRO orange fluorescence; percent of sucrose octasulfate shift, DMSO zero. calls only at 9.99 µM. 340,000 tested, 1.5% active. AID 651658;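 active means melting point raised past a set limit in the mean and every replicate; inconclusive means no clear call; three in four hits are not shown here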
Target sequence (Q9HCT0 whole entry, looked up): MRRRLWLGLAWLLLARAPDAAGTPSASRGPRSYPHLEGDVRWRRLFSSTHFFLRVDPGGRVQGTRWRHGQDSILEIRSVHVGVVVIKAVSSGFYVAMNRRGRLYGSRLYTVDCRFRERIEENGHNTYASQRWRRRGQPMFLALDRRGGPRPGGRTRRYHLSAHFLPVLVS
rRNA inh HTS: inhibits bacterial ribosomal RNA function over humanized ribosomes | 350,000 tested, 1.6% active | E. coli WT GFP vs humanized-ribosome RFP mutants, fluorescence, 24 h; stronger effect = lower value; DMSO median 0, no signal -100 | GFP signal change (wild-type ribosome), % (concentration not given with the values);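 active means significant combined selectivity score with lowered wild-type GFP, culture density cut under 30%, mutant RFP and density less affected; inactive means any of these conditions unmet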; further: one replicate is shown; some compounds called inactive have numbers as strong as hits
Bfl-1 A1 inh: inhibitors of the anti-apoptotic protein A1, read as caspase activation; MEF A1-2A-BIM cells, Caspase-Glo 3/7 luminescence, 3 h; percent of clofoctol response, vehicle zero; caspase activation, % (no concentration beside the values); 330,000 tested, 0.066% active; AID 2462;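 active means over half of replicate activation scores above 10%, or exactly half above 10 with the replicate mean above 10; inconclusive means replicate mean below 10 yet half the replicates above 10; inactive means over half of replicates below 10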;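 further: wells of about 30 µL received 50 nL stock; many hits fall short of the cut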
E coli growth: inhibitors of Escherichia coli growth | OD600, 23 h; stronger effect = lower value | OD600 absorbance (concentration not given with the values) | 330,000 tested, 0.21% active;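 active means OD600 absorbance below the run mean of sample wells minus 3.6 SD, in any replicate, cut at about 0.56 in these data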;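 further: stock transfer was 300 nL into about 60 µL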
UCH37 DUB inh: inhibitors of human deubiquitinating enzyme UCH37; purified proteasome/UCH37, Ub-AMC cleavage fluorescence; inhibition, % (no concentration beside the values); 330,000 tested, 0.33% active; AID 588478;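 active means mean of two replicates above 20%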;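 further: 0% = compound-free wells with enzyme and 100% = wells lacking proteasome; stock transfer was 100 nL into about 20 µL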
Target sequence (Q9Y5K5 whole entry, looked up): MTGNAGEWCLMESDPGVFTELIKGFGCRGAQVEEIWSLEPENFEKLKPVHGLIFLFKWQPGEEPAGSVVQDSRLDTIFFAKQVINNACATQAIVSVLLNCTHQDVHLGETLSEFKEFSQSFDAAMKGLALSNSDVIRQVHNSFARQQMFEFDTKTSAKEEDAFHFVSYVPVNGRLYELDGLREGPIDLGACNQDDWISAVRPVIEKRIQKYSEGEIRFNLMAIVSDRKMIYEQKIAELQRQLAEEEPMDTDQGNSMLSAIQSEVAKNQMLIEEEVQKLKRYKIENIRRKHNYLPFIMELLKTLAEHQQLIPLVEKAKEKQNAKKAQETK
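Test system – human UCH37 enzyme supplied as purified proteasome complex · Incubation – 30 min preincubation with enzyme, 25 min cleavage at room temperature · Detection – AMC fluorescence from Ub-AMC cleavage, excitation 355 nm, emission 460 nm · Benchmarks – no-proteasome wells (full inhibition) and compound-free wells (no inhibition)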
T cruzi inh: blocks replication of Trypanosoma cruzi; T. cruzi beta-gal in NIH3T3, luminescence, 90 h; inhibition, % (no concentration beside the values); 300,000 tested, 1.4% active; AID 1885;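 active means mean inhibition across valid replicates above about 55%, limit read from the data; inconclusive means mean below that limit but half or more replicates reach it; inactive means mean below it, under half of replicates reach it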;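 further: signal also drops with host cell toxicity which is not excluded here; 0% = plate median of DMSO wells and 100% = zero luminescence signal; higher percent means less beta-gal luminescence so fewer parasites; stock transfer was 50 nL into about 50 µL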
rRNA inh HTS OD600: further read-out of rRNA inh HTS, marked with its call; OD600 change, %; measured here: OD600 growth;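 optical density of the mix in the first replicate; 0 = DMSO median and -100 = no signal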
rRNA inh HTS RFP: recorded beside rRNA inh HTS, whose call it bears; RFP signal change, %; measured here: RFP humanized mutant strains;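 first replicate; 0 = DMSO median and -100 = no signal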
Active calls of the source: *; i = inactive; ? = inconclusive; · = not tested or not shown; & = joins results of further samples.

Below each compound: MLL AF4-AF9 inh	rRNA inh HTS OD600	T cruzi inh	Beta apoptosis	UCH37 DUB inh	rRNA inh HTS RFP	E coli growth	Bfl-1 A1 inh	FGF22 binding	rRNA inh HTS
COc1ccc(-n2nc3c(N4CCC(C(=O)NCCc5ccco5)CC4)nnc(C)c3c2C)cc1
 : 1.6	-2	30	2	-107	2.9	0.66	-0.9	i	-4
COc1cccc(/C=C/c2ccncc2)c1OC
 : ·	·	49	-4	1.2	·	0.76	0.8	·	·
CC(C)CNc1oc(-c2ccccc2Cl)nc1C#N
 : 5.1	-8	31	9	-32	-1.0	0.68	-0.3	i	-8
COc1cc(OC)cc(-c2oc(=O)c3cc(OC)c(OC)cc3c2C(F)(F)F)c1
 : ?	9	·	-3	3.9	-3.4	0.7	2.3	i	9
COc1ccc(-c2ccc3c(c2)S(=O)(=O)c2cccc(C(=O)NC[C@@H]4CCCO4)c2C3=O)cc1OC
 : 4.4	20	·	0	2.8	5.8	·	0.7	i	5
O=c1ccnc(SCc2ccccc2Cl)[nH]1
 : ·	·	-13	-2	2.8	·	0.59	0.6	·	·
Nc1ccc(C(O)(C(F)(F)F)C(F)(F)F)cc1
 : ·	·	11	-7	1.0	·	0.66	1.0	·	·
Cc1ccc(C(=O)N2CCC(C)CC2)cc1C
 : ·	·	-10	·	2.1	·	0.6	-1.1	·	·
Cc1ccc2oc(=S)n(C)c2c1
 : ·	·	10	-9	0.4	·	0.67	-0.5	·	·
O=C(C[n+]1cc[nH]c1)c1ccc(Cl)cc1
 : 1.0	1	13	-3	4.5	17	0.6	-0.5	i	-3
COc1cc2c(cc1NC(=O)COC(=O)C(CCSC)NC(=O)c1ccccc1Cl)oc1ccccc12 (centres undefined)
 : -5.1	2	-2	-6	-4.0	-4.0	0.71	0.2	i	2
CCCCc1c(O)nc2sccn2c1=O
 : ·	·	-8	-2	1.6	·	0.67	0.9	·	·
N#CC1=C(N)Oc2ccc3ccc(O)cc3c2C1c1cccnc1 (centres undefined)
 : -4.7	8	-2	-10	1.2	7.7	0.72	-0.5	i	4
O=C(c1cccc([N+](=O)[O-])c1)N1CCCC(C(=O)N2CCc3ccccc3C2)C1 (centres undefined)
 : -0.8	14	-2	-1	2.3	-2.2	0.71	-0.6	i	6
COCc1ccc(C(=O)N(C)CC2CCCN(CCc3ccccc3F)C2)o1 (centres undefined)
 : -11	10	23	-3	1.7	0.5	0.71	0.0	i	11
CCN(CC)C(=O)CSc1nnc([C@H](Cc2c[nH]c3ccccc23)NC(=O)OC(C)(C)C)o1
 : ·	·	3	-2	2.3	·	0.71	0.2	·	·
CCCN1C(=O)c2ccc(C(=O)NC3=NCCS3)cc2C1=O
 : ·	·	-1	-9	-0.3	·	0.67	0.1	·	·
Cc1cccc(OCC(=O)Nc2ccc(N3CCN(C(=O)c4ccco4)CC3)cc2)c1C
 : 1.9	7	15	3	2.3	1.1	0.67	0.2	i	7
COc1ccc(/C=C(\NC(=O)c2ccc(OC)cc2)C(=O)N2CCCCC2)cc1
 : 1.8	-13	-8	-4	2.6	3.4	0.65	1.6	i	-14
CC(c1ccccc1)n1cc(C(=O)NCC2CCCO2)nn1 (centres undefined)
 : ·	·	1	0	-0.4	·	0.72	0.5	·	·
COc1ccc(CCN2CC(C(=O)N(C)Cc3cccnc3)CC2=O)cc1OC (centres undefined)
 : 1.0	6	·	-1	4.3	-1.1	0.73	2.0	i	4
Cc1ccc(OCC(=O)NC(C)c2ccccc2)cc1C (centres undefined)
 : 9.9	-16	2	-4	-0.6	-3.8	0.68	-0.1	i	-10
Cc1cc(C)cc(NC(=O)CCn2cnc3cc(C)c(C)cc32)c1
 : 1.6	·	17	·	3.6	·	0.68	-0.4	i	·
CCC(CO)Oc1cc(NCc2ccccc2)c2ncn(C(C)C)c2c1 (centres undefined)
 : -4.4	-1	·	-11	6.6	19	0.67	-0.7	i	3
COc1cccc(CNC(=O)[C@@H](C)N2C(=O)N3CCc4c([nH]c5ccc(OC)cc45)C3(C)C2=O)c1 (some centres undefined)
 : 2.7	4	-5	2	1.1	-4.2	0.73	0.1	i	11
COC(=O)c1ccc(COC(=O)CNC(=O)c2ccc(C)s2)cc1
 : -5.7	-12	·	-2	0.3	-2.3	0.65	-2.3	i	-4
CCN1CCN(c2nc(Nc3ccccc3)nc(N)c2[N+](=O)[O-])CC1
 : 1.2	-1	-17	-9	11	-1.4	0.68	0.0	i	10
CCN(CC)CCN(C(=O)c1ccc2c(c1)CCCC2)c1nc2c(C)cccc2s1
 : 3.2	-45	31	8	3.2	-5.2	0.72	0.0	i	-38
COc1ccccc1-n1cnnc1SCC(=O)N1CCN(S(=O)(=O)c2ccccc2)CC1
 : ·	·	-12	3	1.7	·	0.69	0.1	·	·
O=S(=O)(NCc1ccc2c(c1)OCO2)c1ccc2c(c1)oc1ccccc12
 : -35	-12*	2	-2	4.2	7.7*	0.66	-0.3	i	-19*
CC1(c2nnc(-c3ccc(F)cc3)o2)CC(c2ccc(F)cc2)=NO1 (centres undefined)
 : ·	·	-4	·	0.4	·	0.69	0.9	·	·
CCCOc1ccc(-c2nc(C#N)c(NCC3CCCO3)o2)cc1 (centres undefined)
 : ·	·	14	-4	-82	·	0.71	1.4	·	·
COc1ccc(NC(=O)CN(C)C(=O)c2ccc3ccccc3n2)cc1
 : -0.4	·	·	-10	0.7	·	0.67	-1.9	i	·
Cc1cccc(NC(=O)c2cc(-c3ccc(C)s3)nc3ccccc23)n1
 : 2.3	·	2	9	-87	·	0.76	-0.7	i	·
CCN1C(=O)CC(N2CCN(c3ccc(OC)cc3)CC2)C1=O (centres undefined)
 : ·	·	-6	-1	0.6	·	0.73	1.0	·	·
C=C(C)CN(CC)C(=O)CN1C(=O)NC2(CCc3ccccc32)C1=O (centres undefined)
 : 2.3	3	-3	-3	-1.2	-0.4	0.68	0.3	i	6
CC1=CC(C)[C@H](/C=N/n2c(=O)[nH]c3c([nH]c4ccc(Br)cc43)c2=O)C(C)C1 (some centres undefined)
 : -5.3	2	64*	61	·	-2.2	·	0.8	i	-4
Cc1ccc(CNC(=O)CCS(=O)(=O)c2ccc(Cl)cc2)cc1
 : ·	·	4	3	-2.3	·	0.69	-1.0	·	·
Cc1cc(C)n(-c2ccc(C(=O)N3CCN(S(=O)(=O)c4ccc(Cl)cc4)CC3)cc2)n1
 : 0.3	-8	·	4	0.6	-0.2	0.64	-0.7	i	-14
Cc1cc(C)n(C(=O)CSc2nc3ccccc3o2)n1
 : ·	·	-4	-9	0.8	·	0.73	0.9	·	·
COC(=O)c1[nH]c2ccc(Br)cc2c1NC(=O)C(C)N1CCN(C2CCCCC2)CC1 (centres undefined)
 : ·	·	36	-13	-1.6	·	0.75	0.5	·	·
O=C(c1cccc(S(=O)(=O)Nc2cccc(C(F)(F)F)c2)c1)N1CCOCC1
 : -13	5	-1	-4	0.1	4.4	0.66	0.3	i	-2
O=[N+]([O-])c1ccc(Sc2ccc(F)cc2)nc1
 : ·	9	-6	-9	7.9	-0.4	0.63	0.2	i	12
CC1CCCCN1C(=O)Cc1ccc(F)cc1 (centres undefined)
 : ·	·	-10	-2	-1.0	·	0.65	0.6	·	·
C=CCNC(=S)N1CC2(C)CN(C(=S)NCC=C)CC(C)(C1)C2=O
 : -2.1	·	2	-13	6.3	·	0.65	-0.1	i	·
Cc1nc(C)c(C(=O)OCC(=O)NCc2ccccc2)s1
 : 0.1	13	·	-7	4.6	-1.8	0.73	-0.5	i	6
CCOC(=O)Cc1csc(N/N=C\c2ccccc2OC)n1
 : 3.3	6	36	8	·	1.7	·	-5.4	i	4
Cc1nc2ccc(NC(=O)N3CCN(c4ccccn4)CC3)cc2s1
 : ·	·	1	-2	1.5	·	0.68	0.1	·	·
COc1cccc(C(=O)N2CCN(C(=O)c3cccc4ccccc34)CC2)c1OC
 : ·	·	-3	·	0.9	·	0.76	-1.7	·	·
Cc1[nH]n(-c2ccccc2)c(=O)c1N=Nc1ccccc1C(=O)O
 : 1.3	-77	12	-5	13	-13	0.62	-0.7	·	-47

(list continues)
Below each compound: MLL AF4-AF9 inh	rRNA inh HTS OD600	T cruzi inh	Beta apoptosis	UCH37 DUB inh	rRNA inh HTS RFP	E coli growth	Bfl-1 A1 inh	FGF22 binding	rRNA inh HTS
C=CC[C@@H](CC(=O)N(CCO)Cc1ccccc1)C(=O)NCCOC(=O)[C@@H](CC=C)Cc1ccc(F)cc1
 : -2.7	-40	·	·	1.9	2.3	0.7	·	i	-15
Cn1c(=O)n(C)c2cc(NC(=O)c3ccc(F)cc3)ccc21
 : -1.6	7	-7	-2	0.7	-0.5	0.67	0.4	i	1
O=C(C1CCCCN1S(=O)(=O)c1ccccc1[N+](=O)[O-])N1CCOCC1 (centres undefined)
 : 2.1	0	5	-3	-0.7	-0.6	0.71	0.0	i	6
Cn1ccnc1SCC(=O)Nc1cccc(C(F)(F)F)c1
 : ·	·	3	3	1.1	·	0.68	-0.3	·	·
CC(C)NC(=O)Nc1ccc2c(c1)C(=O)N([C@H](C)CO)C[C@H](C)[C@@H](CN(C)S(=O)(=O)c1ccccc1)O2
 : -0.5&0.9	11&17	·	-5	2.4	-1.6&26	·	0.0	i	1&-6
CC(C)CNC(=O)Nc1ccccc1F
 : -4.7	1	-7	0	-1.2	-2.1	0.66	-0.1	i	-3
CCOC(=O)C(O)(CC(=O)c1ccc(OC)cc1)C(F)(F)F (centres undefined)
 : ·	·	-3	-5	1.1	·	0.7	1.8	·	·
CC1=C(C#N)C(c2ccccc2O)C(C#N)=C(C)N1
 : -15	0	-7	-4	-12	0.3	0.67	2.3	i	3
CC(C)[C@H](NC(=O)CCCn1nnc2ccccc2c1=O)C(=O)O
 : -29	7	-16	-1	3.5	-0.2	0.74	-0.8	i	12

A portion of the library (hit frequency here may not be typical).
